Assay outcomes from PubChem BioAssay.
rRNA inh HTS: inhibitors of bacterial rRNA selective over humanized ribosomes | E. coli WT GFP vs humanized-ribosome RFP mutants, fluorescence, 24 h; stronger effect = lower value; DMSO median 0, no signal -100 | GFP signal change (wild-type ribosome), % (concentration not given with the values) | 1.6% of 350,000 active | AID 720706;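 active = significant combined selectivity score with lowered wild-type GFP, culture density cut under 30%, mutant RFP and density less affected; inactive = any of these conditions unmet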; also: one replicate is shown; some compounds called inactive have numbers as strong as hits
rRNA inh HTS OD600: also measured in rRNA inh HTS; calls as there; OD600 change, %; measured here: OD600 growth;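 optical density of the mix in the first replicate; 0 = DMSO median and -100 = no signal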
rRNA inh HTS RFP: second read-out of rRNA inh HTS, no call of its own (marks repeat the call); RFP signal change, %; measured here: RFP humanized mutant strains;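 first replicate; 0 = DMSO median and -100 = no signal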
Starred values were filed as active, the others as inactive; & = joins results of further samples. Not all compounds are listed; count on the stated rates, not on these rows.

Start of the listing, in advance (6 entries):
smiles,rRNA inh HTS,rRNA inh HTS OD600,rRNA inh HTS RFP
O=C(C[C@H]1CC[C@@H](NC(=O)CCN2CCCCC2)[C@H](CO)O1)Nc1ccccc1,2,3,-1.5
C[C@H]1CCCCO[C@H](CN(C)S(=O)(=O)c2cn(C)cn2)[C@@H](C)CN([C@@H](C)CO)C(=O)c2cc(NC(=O)c3ccccc3)ccc2O1,-2,2,-1.8
COc1cc(C=CC(=O)c2ccccc2)cc(OC)c1OC,12,19,1.8
CC=Cc1ccc2n(c1=O)C[C@@H]1[C@@H](CO)[C@H](C(=O)NCC(F)(F)F)[C@H]2N1C(=O)CC (mixture of isomers),1,-5,-0.8
C[C@H]1CN([C@@H](C)CO)S(=O)(=O)c2ccc(/C=C/c3ccccc3)cc2O[C@H]1CN(C)C(=O)c1cccnc1,2,-12,0.1
O=C(C1CCCCC1)N1C[C@@H]2[C@H](c3ccccc31)[C@@H](CO)N2Cc1ccccc1Cl,-25,-66,15

Main list, from the start:
smiles,rRNA inh HTS,rRNA inh HTS OD600,rRNA inh HTS RFP
O=C(C[C@H]1CC[C@@H](NC(=O)CCN2CCCCC2)[C@H](CO)O1)Nc1ccccc1,2,3,-1.5
C[C@H]1CCCCO[C@H](CN(C)S(=O)(=O)c2cn(C)cn2)[C@@H](C)CN([C@@H](C)CO)C(=O)c2cc(NC(=O)c3ccccc3)ccc2O1,-2,2,-1.8
COc1cc(C=CC(=O)c2ccccc2)cc(OC)c1OC,12,19,1.8
CC=Cc1ccc2n(c1=O)C[C@@H]1[C@@H](CO)[C@H](C(=O)NCC(F)(F)F)[C@H]2N1C(=O)CC (mixture of isomers),1,-5,-0.8
C[C@H]1CN([C@@H](C)CO)S(=O)(=O)c2ccc(/C=C/c3ccccc3)cc2O[C@H]1CN(C)C(=O)c1cccnc1,2,-12,0.1
O=C(C1CCCCC1)N1C[C@@H]2[C@H](c3ccccc31)[C@@H](CO)N2Cc1ccccc1Cl,-25,-66,15
COc1ccc(C#Cc2ccc([C@H]3[C@@H](CO)N4CCCCN(C)C[C@H]34)cc2)cc1,-10,-5,-2.0
C[C@@H]1CN([C@H](C)CO)C(=O)c2cc(NC(=O)NC3CCCCC3)ccc2O[C@@H](C)CCCCO[C@H]1CN(C)C,4,4,0.4

More compounds.
smiles,rRNA inh HTS,rRNA inh HTS OD600,rRNA inh HTS RFP
C[C@H]1CN([C@@H](C)CO)C(=O)c2cc(C#CC3CCCC3)cnc2O[C@H]1CN(C)S(C)(=O)=O,6,2,-0.6
CC(C)N(c1cc(=O)nc2ccccn12)C(C)C,16,21,1.1
CN(NS(=O)(=O)c1ccc([N+](=O)[O-])cc1)c1ccccc1,3,20,0.3
C[C@H]1CN([C@@H](C)CO)C(=O)c2cccc(NC(=O)c3cnccn3)c2O[C@H]1CN(C)Cc1ccc(C(=O)O)cc1,3,4,0.3
C/C=C/c1cnc2c(c1)C(=O)N([C@@H](C)CO)C[C@H](C)[C@@H](CN(C)C(=O)CCN1CCCCC1)O2,5,12,0.3
CCCN1C[C@@H](C)[C@@H](OC)CN(C)C(=O)c2ccc(NC(=O)COC)cc2OC[C@H]1C,2,-2,3.7
C[C@H]1CN([C@@H](C)CO)C(=O)Cc2cc(NC(=O)c3ccncc3)ccc2O[C@H]1CN(C)Cc1ccc(Oc2ccccc2)cc1,-10,-36,31
C[C@@H]1CN([C@H](C)CO)C(=O)c2cccc(NC(=O)Nc3cccc4ccccc34)c2O[C@@H]1CN(C)Cc1ccncc1,-4,-15,0.9

The results go on.
smiles,rRNA inh HTS,rRNA inh HTS OD600,rRNA inh HTS RFP
c1ccc2c(-c3cc(NCc4ccncc4)n4nccc4n3)cccc2c1,5,-2,0.6
C/C=C/c1ccc([C@@H]2[C@H](CO)N3C(=O)CN(S(=O)(=O)c4ccccc4)C[C@@H]23)cc1,-5,-12,3.6
CO[C@H]1CN(C)C(=O)c2ccc(NC(C)=O)cc2OC[C@H](C)N(CC2CCCCC2)C[C@@H]1C,-4,-24,3.0
COc1ccccc1-c1ccc2c(c1)O[C@@H](CN(C)C(=O)Nc1ccccc1)[C@@H](C)CN([C@H](C)CO)S2(=O)=O,-6,0,3.1
C[C@@H]1CN([C@H](C)CO)C(=O)c2cc(NC(=O)NC3CCCCC3)ccc2O[C@@H](C)CCCCO[C@H]1CN(C)S(=O)(=O)c1ccc(F)cc1,0,9,-5.5
C[C@@H]1CN([C@@H](C)CO)C(=O)c2cc(NC(=O)Nc3ccc(F)cc3)ccc2O[C@@H]1CN(C)C(=O)Nc1ccc2c(c1)OCO2,-4,-15,0.2
COc1ccc(S(=O)(=O)N(C)C[C@@H]2OCCCC[C@H](C)Oc3ccc(NC(=O)Cc4ccccc4)cc3C(=O)N([C@@H](C)CO)C[C@H]2C)cc1,2,1,2.9
C[C@@H]1CN([C@H](C)CO)C(=O)c2c(c3ccccc3n2C)-c2ccccc2CO[C@H]1CN(C)S(=O)(=O)c1ccsc1,-1,4,-0.5

Further compounds.
smiles,rRNA inh HTS,rRNA inh HTS OD600,rRNA inh HTS RFP
CO[C@@H]1CN(C)C(=O)c2cc(NC(=O)Nc3ccccc3F)ccc2OC[C@H](C)N(C)C[C@@H]1C,2,-5,1.1
CN(C)CCCNC(=O)C[C@H]1CC[C@@H]2[C@H](COc3ccc(NS(C)(=O)=O)cc3C(=O)N2C)O1,2,10,-4.3
Cc1ccc(S(=O)(=O)N[C@@H]2CC[C@H](CCNC(=O)C3CCOCC3)O[C@H]2CO)cc1,2,4,-1.0
CC(C)NC(=O)N(C)C[C@@H]1OCCCC[C@@H](C)Oc2ccc(NS(=O)(=O)c3ccc(F)cc3)cc2C(=O)N([C@@H](C)CO)C[C@@H]1C,3,3,-0.7
CS(=O)(=O)N1[C@@H]2c3ccc(-c4ccccc4F)c(=O)n3C[C@@H]2[C@@H](CO)[C@@H]1C(=O)NCC1CC1,2,3,-2.7
CC(C)(C)NC(=O)C(c1cccc2ccccc12)n1c(=O)c(-c2ccco2)nc2ccccc21 (stereo unspecified),3,-2,6.5
COc1ccc2c3c(n(C)c2c1)[C@H](CO)N(C(=O)Nc1ccc(F)cc1)CC31CN(CC2CCOCC2)C1,0,-6,2.1
CC(C)[C@H](NC(=O)CC1CCCC1)C(=O)N1CCC[C@H]1C(=O)NCCc1ccccc1Cl,-11,-8,7.2

Going on with the list:
smiles,rRNA inh HTS,rRNA inh HTS OD600,rRNA inh HTS RFP
CCNC(=O)C[C@@H]1CC[C@@H]2[C@H](COc3ccc(NC(=O)c4cccs4)cc3C(=O)N2C)O1,2,5,-2.8
CCCCN(C)C(=O)c1ccc(Nc2nc(C(N)Cc3ccccc3)cs2)nc1 (stereo unspecified),-6,-1,7.7
O=C(C[C@@H]1C=C[C@@H](NC(=O)C2CCOCC2)[C@H](CO)O1)Nc1ccc(-c2ccccc2)cc1,-3,-1,3.8
CCC(=O)N[C@H]1CC[C@H](CC(=O)OC)O[C@@H]1CO,4,10,-0.5
COc1ccc(-c2coc3c(C(=O)NCc4ccc(F)c(F)c4)cccc23)c(C)c1,1,-10,3.0
C[C@H](CO)N1C[C@H](C)[C@@H](CN(C)Cc2ccc(C(F)(F)F)cc2)Oc2c(NC(=O)c3cnccn3)cccc2C1=O,-7,0,-3.0
NCC[C@@H]1CC[C@@H](NC(=O)c2ccccc2F)[C@H](CO)O1,2&2,7&3,0.8&-1.5
Cc1noc(C)c1NC(=O)N(C)C[C@H]1Oc2ccc(NC(=O)c3ccncc3)cc2C(=O)N([C@@H](C)CO)C[C@H]1C,1,-4,-1.8

Continued.
smiles,rRNA inh HTS,rRNA inh HTS OD600,rRNA inh HTS RFP
O=C(Nc1ccc(F)cc1)N1C[C@@H]2[C@H](c3ccccc31)[C@H](CO)N2C(=O)Cc1ccccn1,2,8,2.6
COc1cccc(C(=O)Nc2ccc3c(c2)OC[C@H](C)N(C(C)=O)C[C@@H](C)[C@H](OC)CN(C)C3=O)c1,-4,-1,3.8
CCCN(CCC)Cc1cc(=O)oc2cc(C)ccc12,1,6,-2.0
C[C@@H](O)C#Cc1ccc([C@@H]2[C@H]3CN(C(=O)Nc4ccccc4)CCCCN3[C@H]2CO)cc1,3,5,-1.0
C[C@@H]1CN([C@@H](C)CO)C(=O)c2cccc(NC(=O)Nc3ccc(C(F)(F)F)cc3)c2O[C@@H]1CN(C)Cc1ccc(Cl)c(Cl)c1,1,0,3.0
C[C@H]1CCCCO[C@@H](CN(C)C)[C@@H](C)CN([C@@H](C)CO)C(=O)c2cc(NC(=O)C3CCCCC3)ccc2O1,0,-8,-1.7
C[C@H](CO)N1C[C@H](C)[C@H](CN(C)Cc2ccncc2)Oc2ccc(NC(=O)Cn3cnnn3)cc2C1=O,-3,-20,2.2
O=C(Nc1ccccc1F)N[C@H]1CC[C@@H](CCNC(=O)C2CCCC2)O[C@H]1CO,0,-4,2.0

Next part.
smiles,rRNA inh HTS,rRNA inh HTS OD600,rRNA inh HTS RFP
CN1C(=O)c2cc(NS(C)(=O)=O)ccc2OC[C@H]2O[C@@H](CC(=O)NC3CCCCC3)CC[C@@H]21,5,9,-0.5
COc1ccc(CNC(=O)C[C@H]2C[C@H]3c4cc(NC(=O)C5CCC5)ccc4O[C@H]3[C@@H](CO)O2)cc1,-1,0,0.8
C[C@H](CO)N1C[C@H](C)[C@H](CN(C)S(C)(=O)=O)OCc2cnnn2CCCC1=O,26&1,20&-1,2.6&-2.7
COc1cccc(-c2ccc3c(c2)[C@H]2[C@H](CCN2S(=O)(=O)c2ccccc2OC)[C@@H](CO)N3C)c1,0,16,-0.7
COc1ccc2c3c(n(C)c2c1)[C@H](CO)N(C(=O)C1CC1)CC31CN(C)C1,7,15,0.8
C[C@H](CO)N1C[C@H](C)[C@@H](CN(C)C(=O)Nc2cccc3ccccc23)OCCCC[C@H](C)Oc2ccc(N(C)C)cc2C1=O,-2,-4,-3.5
CC(C)NC(=O)N(C)C[C@H]1Oc2cc(C#C[C@@H](C)O)ccc2S(=O)(=O)N([C@H](C)CO)C[C@H]1C,-3,-28,-3.0
O=C(NC(Sc1ccc(Cl)cc1)C(=O)O)c1ccccc1 (stereo unspecified),0,7,-1.6

Further entries follow:
smiles,rRNA inh HTS,rRNA inh HTS OD600,rRNA inh HTS RFP
COc1ccc(S(=O)(=O)N(C)C[C@H]2OCc3cnnn3CCCC(=O)N([C@@H](C)CO)C[C@@H]2C)cc1,2,6,0.5
CC(=O)N1CC(=O)N2[C@H](C1)[C@@H](c1ccc(-c3cccc(C(=O)N(C)C)c3)cc1)[C@@H]2CO,6,14,-1.6
C[C@H](CO)N1C[C@H](C)[C@H](CN(C)S(=O)(=O)c2ccc(Cl)cc2)Oc2ccc(NC(=O)Cc3cn(C)c4ccccc34)cc2CC1=O,0,-4,0.8
C[C@@H]1CN([C@H](C)CO)C(=O)c2cccc(NC(=O)C3CCOCC3)c2O[C@@H]1CN(C)S(=O)(=O)c1ccc(F)cc1,0,14,-2.8
CCCC(=O)Nc1ccc2c(c1)C(=O)N(C)C[C@@H](OC)[C@@H](C)CN(CC1CCOCC1)[C@@H](C)CO2,1,5,1.1
CCC(=O)Nc1ccc2c(c1)C(=O)N(C)[C@@H]1CC[C@H](CC(=O)NCc3ccccc3)O[C@@H]1CO2,-1,-3,-2.2
O=C(NC[C@H]1[C@@H](c2ccccc2)[C@@H](CO)N1C(=O)C1CCC1)NC1CCCC1,-1,3,1.9
COc1ccc([C@H]2C[C@@H](O)[C@H](n3cc(-c4ccc(F)cc4)nn3)CN2C(=O)C2CCCCC2)cc1,-20,-20,3.1

(further entries)
smiles,rRNA inh HTS,rRNA inh HTS OD600,rRNA inh HTS RFP
CO[C@H](C(=O)N(C)C[C@@H]1OCc2ccccc2-c2c(n(C)c3ccccc23)C(=O)N([C@H](C)CO)C[C@@H]1C)c1ccccc1,1&-4,-7&-4,0.5&-1.3
C/C=C/c1ccc2c(c1)O[C@H](CN(C)C(=O)c1cccnc1)[C@H](C)CN([C@H](C)CO)S2(=O)=O,4,4,1.3
CNC[C@H]1OCCCC[C@H](C)Oc2ccc(NC(=O)CCC(F)(F)F)cc2C(=O)N([C@@H](C)CO)C[C@@H]1C,8,9,0.3
CCC(=O)N1[C@H](CO)[C@H](c2ccc(-c3ccccc3OC)cc2)C12CN(C(C)=O)C2,2,-3,-0.6
CC(C)NC(=O)N1CC(=O)N2[C@H](CO)[C@@H](c3ccc(/C=C/c4ccccc4)cc3)[C@@H]2C1,-2,9,-4.1
C[C@H]1CN([C@@H](C)CO)C(=O)c2cc(C3=CCCC3)cnc2O[C@@H]1CN(C)C(=O)Nc1ccccc1,0,-6,2.7
CN1c2ccc(-c3ccccc3F)cc2[C@@H]2[C@@H](CCN2S(=O)(=O)c2ccccc2)[C@H]1CO,-5,-4,3.6
CCCNC(=O)[C@H]1[C@H](CO)[C@H]2Cn3c(ccc(C4=CCCC4)c3=O)[C@H]2N1C(=O)C1CC1,1,0,0.0

Following part:
smiles,rRNA inh HTS,rRNA inh HTS OD600,rRNA inh HTS RFP
CO[C@@H]1CN(C)C(=O)c2cc(NC(=O)Nc3ccccc3Cl)ccc2OC[C@H](C)NC[C@@H]1C,-2,-9,1.9
C[C@@H]1CN([C@@H](C)CO)C(=O)c2cc(NS(=O)(=O)c3cn(C)cn3)ccc2O[C@@H](C)CCCCO[C@H]1CN(C)Cc1ccccc1,1,2,-3.6
COC(=O)c1ccc(CN2CC(=O)N3[C@H](CO)[C@H](c4ccc(-c5ccccc5F)cc4)[C@H]3C2)cc1,-1,-37,27
C[C@H](CO)N1C[C@H](C)[C@@H](CN(C)S(C)(=O)=O)Oc2ccc(NS(=O)(=O)c3cccs3)cc2CC1=O,3,12,-0.8
CC1(C(=O)Nc2cccc(Oc3ccccc3)c2)CCN1Cc1cccc2c1OCO2 (stereo unspecified),1,2,-1.5
C[C@H]1CN([C@@H](C)CO)C(=O)c2cccc(NS(=O)(=O)c3cn(C)cn3)c2O[C@H]1CN(C)C(=O)Nc1ccc(F)cc1,0,2,-0.5
